# B2AR ag = beta2AR agonists driving receptor internalization, primary screen, cell-based, FAP fluorogen, flow cytometry. response, % (no concentration beside the values). AID 504454, 2011. Am2.2-beta2AR cells; reference of the scale not given here. Beta-2 adrenergic receptor (Homo sapiens), P07550. 340,000 compounds, 0.43% hits;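 active = response above a set limit, near 3 SD of response in nonfluorescent compounds, cut at about 42% in these data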;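 also: stock transfer was 100 nL into about 11 µL; a reference agonist was the positive control; negative values mostly stem from fluorescent compounds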
# Target sequence (P07550 whole entry, looked up): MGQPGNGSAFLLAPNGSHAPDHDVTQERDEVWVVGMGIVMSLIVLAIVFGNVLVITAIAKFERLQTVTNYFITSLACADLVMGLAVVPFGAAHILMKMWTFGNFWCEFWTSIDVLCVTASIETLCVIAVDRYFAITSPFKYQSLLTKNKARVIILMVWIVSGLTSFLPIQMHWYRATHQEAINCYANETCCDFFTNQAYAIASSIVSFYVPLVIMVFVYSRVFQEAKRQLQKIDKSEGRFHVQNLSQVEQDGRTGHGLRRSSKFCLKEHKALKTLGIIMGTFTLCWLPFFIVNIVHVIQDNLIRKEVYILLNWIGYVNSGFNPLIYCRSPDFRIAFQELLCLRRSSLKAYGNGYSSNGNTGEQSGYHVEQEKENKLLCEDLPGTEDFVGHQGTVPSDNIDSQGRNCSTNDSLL
# rRNA inh HTS = reduced GFP signal of wild-type E. coli, primary screen, bacterial rRNA inhibitor project, GFP/RFP fluorescence, OD600, single point | E. coli WT GFP vs humanized-ribosome RFP mutants, 24 h; active compounds read low; DMSO median 0, no signal -100 | GFP signal change (wild-type ribosome), % (no concentration beside the values) | 350,000 compounds, 1.6% hits | AID 720706, 2013;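 active = significant combined selectivity score with lowered wild-type GFP, culture density cut under 30%, mutant RFP and density less affected; inactive = any of these conditions unmet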; also: one replicate is shown; some compounds called inactive have numbers as strong as hits
# HNF4A DNA FP = change in binding of human HNF4A to DNA, primary screen, biochemical, fluorescence polarization, FITC-DNA; activity change, % at 10 µM; AID 1224865, 2016; 1 h; 360,000 compounds, 0.3% hits; in the data active = activity change above about 30%, passing the limit was not always enough;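 also: controls were the assay level and a saturating level of protein; the project sought stronger binding though the title names inhibitors; some compounds called inactive have numbers as strong as hits; positive values seem to mean higher polarization but the record does not say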
# ALR inh = inhibitors of human ALR sulfhydryl oxidase, primary screen, biochemical, H2O2 detection, HRP-luminol luminescence, single point; FAD-linked sulfhydryl oxidase ALR (Homo sapiens), P55789; purified ALR, DTT oxidation; inhibition, % (test concentration not listed); 290,000 compounds, 3.8% hits; AID 485317, 2010;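 active = mean and each replicate at 75% or more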;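 also: stock transfer was 7.5 nL into about 7.5 µL; 0% = neutral wells and 100% = wells with inactivated enzyme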
# Target sequence (P55789 whole entry, looked up): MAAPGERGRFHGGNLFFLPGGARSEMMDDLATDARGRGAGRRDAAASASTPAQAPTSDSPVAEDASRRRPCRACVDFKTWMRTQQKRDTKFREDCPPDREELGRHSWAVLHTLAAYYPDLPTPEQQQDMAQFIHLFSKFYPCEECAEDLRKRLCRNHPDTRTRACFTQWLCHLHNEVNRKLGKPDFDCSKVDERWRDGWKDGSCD
# E coli growth = E. coli growth inhibition, primary screen, OD600. AID 1053175, 2014. 330,000 compounds, 0.21% hits. OD600 absorbance (concentration not given with the values). Escherichia coli growth, 23 h; active compounds read low;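 active = OD600 absorbance below the run mean of sample wells minus 3.6 SD, in any replicate, cut at about 0.56 in these data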;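 also: stock transfer was 300 nL into about 60 µL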
# FGF22 binding = binders of human FGF22 protein, primary screen, FGF22 synaptogenesis inhibitor project, biophysical, thermal shift, single point | Fibroblast growth factor 22 (Homo sapiens), Q9HCT0 | recombinant FGF22 thermal shift, SYPRO orange fluorescence; percent of sucrose octasulfate shift, DMSO zero | calls only at 9.99 µM | 340,000 compounds, 1.5% hits;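 active = melting point raised past a set limit in the mean and every replicate; three in four hits are not shown here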
# Target sequence (Q9HCT0 whole entry, looked up): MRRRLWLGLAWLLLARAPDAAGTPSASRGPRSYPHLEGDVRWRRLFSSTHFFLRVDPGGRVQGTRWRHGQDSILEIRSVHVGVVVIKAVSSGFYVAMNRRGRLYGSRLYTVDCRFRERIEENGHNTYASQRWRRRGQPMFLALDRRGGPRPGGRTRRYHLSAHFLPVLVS
# UCH37 inh = inhibitors of human UCH37 deubiquitinase, primary screen, biochemical, Ub-AMC cleavage, fluorescence. Ubiquitin carboxyl-terminal hydrolase isozyme L5 (Homo sapiens), Q9Y5K5. purified proteasome/UCH37. inhibition, % (test concentration not listed). 330,000 compounds, 0.33% hits. AID 588478, 2011;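 active = mean of two replicates above 20%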;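 also: 0% = compound-free wells with enzyme and 100% = wells lacking proteasome; stock transfer was 100 nL into about 20 µL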
#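 assay system = human UCH37 enzyme supplied as purified proteasome complex | amount = proteasome at 0.15 nM in the dispensed enzyme solution | schedule = 30 min compound-proteasome preincubation then 25 min substrate reaction, room temperature | measured by = fluorescence, ex 355 nm, em 460 nm | benchmarks = no-proteasome wells (full inhibition) and compound-free wells (no inhibition)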
# rRNA inh HTS OD600 = further read-out of rRNA inh HTS, marked with its call; OD600 change, %; measured here: OD600 growth;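 optical density of the mix in the first replicate; 0 = DMSO median and -100 = no signal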
# rRNA inh HTS RFP = further read-out of rRNA inh HTS, marked with its call; RFP signal change, %; measured here: RFP humanized mutant strains;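 first replicate; 0 = DMSO median and -100 = no signal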
# * = called active by the depositor; i = inactive; . = not tested or not shown. This is a subset, so the mix of outcomes need not match the whole.
SMILES,B2AR ag,rRNA inh HTS,rRNA inh HTS OD600,rRNA inh HTS RFP,HNF4A DNA FP,ALR inh,E coli growth,FGF22 binding,UCH37 inh
CCOC(=O)C1=C(C)N=C2SC(C(=O)OC)=CC(=O)N2C1c1ccc(F)cc1 (stereo unspecified),19,.,.,.,5.7,-2,0.69,.,-0.7
Cc1cccc2[nH]c3c(N4CC=C(c5ccc(F)cc5)CC4)ncnc3c12,5,-12,-22,-1.2,2.3,-3,0.7,i,-19
CCCC(=O)Nc1ccc(NC(=O)c2ccco2)cn1,5,.,.,.,-2.9,-4,0.76,.,0.6
O=C(c1ccc(Br)cc1)c1cn[nH]c1-c1ccccc1O,-3,0,-24,1.3,1.4,8,.,i,.
COc1ccccc1CNS(=O)(=O)c1ccc(Br)s1,-1,.,.,.,1.3,-5,0.65,.,0.8
CC(C)(/C=N/O)/[N+]([O-])=C/c1ccco1,-7,.,.,.,0.2,-7,.,.,.
CC1(C)Cc2c(c(N3CCOCC3)nc3sc(C(=O)N4CCCCC4)c(N)c23)CO1,-9,-1,0,-2.5,2.0,.,0.73,i,-119
CC(=O)N1C(=O)C(=C2C=C(C)OC(C)=C2)c2ccccc21,-2,.,.,.,138,7,0.73,.,3.9
O=C(N/N=C/c1ccc(Br)s1)c1ccncc1,-2,-20,1,9.3,1.8,.,.,i,.
Cc1ccc(Cn2ccc(NC(=O)c3cc(-c4cccs4)on3)n2)cc1,8,.,.,.,0.7,-18,0.72,.,-6.0
COc1cc(C(=O)NCC2CCCO2)ccc1OCc1ccc(Cl)cc1Cl (stereo unspecified),0,-35,-68,-4.8,6.7,0,0.67,i,-1.8
CCN1CN(Cc2ccccc2)CNC1=S,4,.,.,.,1.6,1,0.69,.,3.3
CCOC(=O)Cn1c(=NC(=O)C(C)(C)C)sc2cc([N+](=O)[O-])ccc21,-5,.,.,.,0.9,-16,0.73,i,4.4
COc1ccc2[nH]c(C(=O)NCCN3CCCCC3)cc2c1,.,.,.,.,.,-31,0.71,.,-54
CC(=O)N1CCc2cc(S(=O)(=O)CCC(=O)N3CCN(c4cc(C)ccc4C)CC3)ccc21,1,14,9,-0.1,1.6,0,0.6,i,-0.3
COc1ccccc1CC(=O)NC1CCC(C)CC1 (stereo unspecified),-2,8,8,0.0,0.0,49,0.68,i,0.7
CCN(CC)C(=O)Cn1cc(C(=O)C(=O)NCCCN2CCCCC2)c2ccccc21,-1,10,19,0.4,2.9,-4,0.69,i,10
CN(Cc1cnccn1)C(=O)C1CCC(=O)N(CCc2ccccc2)C1 (stereo unspecified),3,4,6,-3.5,2.4,1,0.72,i,2.1
COC(=O)c1ccccc1NC(=O)c1cc2n(n1)C(C(F)F)CC(C(F)F)N2 (stereo unspecified),-4,.,.,.,-0.6,1,0.75,.,1.3
Cc1ccc(C)c(-n2c(SCC(=O)Nc3nonc3C)nnc2-c2ccoc2C)c1,-13,.,.,.,-2.8,-18,0.73,.,1.1
N#C/C(=C\c1ccc(Br)s1)C(=O)N1CCN(c2ccccc2)CC1,4,-1,8,6.7,4.2,1,0.71,i,5.2
CC(C)n1c(O)c(/C=C2\C=Nc3ccccc32)sc1=Nc1ccccc1,-6,.,.,.,-0.5,.,0.68,.,3.1
CN(C)c1ccc(NC(=O)CSc2nc(N)c(C(=O)Nc3ccc(N(C)C)cc3)s2)cc1,5,-6,-3,0.2,4.0,22,.,.,.
COC(=O)C1=C(C)C(c2ccc(OC)cc2)NC(=S)N1 (stereo unspecified),-1,.,.,.,-4.3,-22,0.69,.,2.3
C=CCn1c(SC(C)C(=O)NC2(C#N)CCCCC2)nnc1-c1ccc(OC)cc1 (stereo unspecified),0,.,.,.,1.5,-5,0.72,.,1.3
COCCCNC(=O)c1ccccc1N(Cc1ccccc1)S(=O)(=O)c1ccccc1,-8,-4,-6,11,0.7,-1,0.7,i,4.9
Cc1ccc2nc(SCc3nc4ccccc4c(=O)[nH]3)[nH]c2c1,3,-8,-3,-2.4,2.6,3,0.66,i,2.8
CC(=O)[C@H]1CC[C@@H](c2ccccc2)N(S(=O)(=O)c2ccc(C)cc2)C1,.,-5,-12,0.9,1.4,.,.,i,.
COc1ccc(C(=O)NCc2ccccc2OC)cc1,-2,4,2,-0.7,4.3,-11,0.69,.,-1.4
CCN(CC)c1ccc2cc(C(N)=O)c(=O)oc2c1,-7,6,0,37,35,51,0.59,i,-80
CN(C)c1cc(C(=O)N(C)c2ccccc2)ncn1,.,8,8,0.1,-0.4,.,.,i,.
COc1ccc(C(=O)NNC(=O)C2=NN(c3ccccc3)C(=O)CC2)cc1,-6,4,12,1.6,4.4,-14,0.67,i,-0.7
COC1OC2COC(c3ccccc3)OC2C2OC12 (stereo unspecified),3,12,12,1.1,-0.5,.,0.69,i,0.6
CC1CC(=O)N(CC(=O)NC2CCCCC2)c2ccccc2S1 (stereo unspecified),-2,-1,2,-0.1,7.7,-6,0.7,i,1.2
O=C1NC(Cc2ccc(O)cc2)c2nc3ccc(F)cc3c(=O)n2-c2cc3ccccc3cc21 (stereo unspecified),.,-11,-6,2.5,1.3,.,.,i,.
COc1ccc(CNCCS(=O)(=O)NCc2ccc(OC)cc2)cc1,2,1,-1,2.1,-2.7,.,.,i,.
CCOCCCN1C(=O)CN(C2CCC(C)CC2)C(=O)C1c1ccc(C)cc1 (stereo unspecified),1,2,8,-1.3,-2.4,.,0.67,i,1.0
COc1ccc(OCCNS(=O)(=O)Cc2ccccc2)cc1,4,-3,2,-5.3,0.6,-4,0.67,i,5.9
O=C(CCCc1nc(-c2ccccc2)no1)NCc1cccnc1,-3,.,.,.,2.3,-5,0.69,.,2.5
Cc1noc(C)c1C(=O)Nc1nccs1,-3,8,7,1.2,0.0,-9,0.72,i,1.3
CC(Sc1nnc(C2CC2)n1C1CC1)C(=O)c1ccc(F)cc1 (stereo unspecified),9,2,-3,1.4,-2.7,6,0.69,i,1.6
O=C(COC(=O)c1cc([N+](=O)[O-])ccc1NCCO)c1ccccc1,-10,5,12,18,4.2,0,0.68,i,2.5
CS(=O)(=O)N(CC(=O)Nc1ccc(CC#N)cc1)c1ccc(C23CC4CC(CC(C4)C2)C3)cc1,-1,6,-12,-2.5,-1.0,-6,0.67,i,4.6
O=C(Nc1nnc(C23CC4CC(CC(C4)C2)C3)s1)c1ccc(N2C(=O)CCC2=O)cc1,3,10,17,-3.4,-0.9,17,0.78,i,0.2
CC(C)OCCCNC(=O)Cn1nc(-c2ccccc2)ccc1=O,5,.,.,.,166,-1,0.69,.,2.1
CCc1ccc(-c2cc(C)no2)cc1S(=O)(=O)N1CCN(c2ccc(F)cc2)CC1,10,3,3,2.5,1.3,-1,0.69,i,-0.5
COc1ccc(/C=C2/C(=O)N(Cc3ccccc3)N=C2C)cc1,18,16,8,-7.4,3.9,.,0.68,i,6.5
CCOCCc1nnc(NC(=O)CCc2ccccc2)s1,0,-4,6,0.5,1.5,.,0.67,i,-0.8
Cc1c(NC(=O)C2CCN(S(=O)(=O)c3cccs3)CC2)c(=O)n(-c2ccccc2)n1C,-5,5,2,7.3,0.1,-1,0.67,i,1.2
CCc1nc2ccc(C(=O)N3CCN(C(=O)c4ccco4)CC3)cn2c1N(C)Cc1nccn1C,.,5,14,-2.7,-4.7,.,.,i,.
C=CCSc1nnc(NC(=O)c2ccc(S(=O)(=O)NCC3CCCO3)cc2)s1 (stereo unspecified),-1,.,.,.,-0.8,-4,0.72,.,2.7
Cc1cc(C(=O)COc2ccccc2C(N)=O)c(C)n1C1CC1,-2,-28,-34,7.4,-1.2,-15,0.66,i,-0.3
CCOC(=O)N1CCC(NS(=O)(=O)c2ccc(C#N)cc2)CC1,2,0,5,1.8,5.4,-2,0.64,i,1.6
Cc1c(NC(=O)c2ccc(Cl)s2)c(=O)n(-c2ccccc2)n1C,-6,.,.,.,2.6,-4,0.69,.,-0.9
CCOC(=O)c1c(NC(=O)COC)sc2c1CCCC2,0,.,.,.,1.4,.,0.69,.,-2.5
O=C(CSc1nc2[nH]ncc2c(=O)[nH]1)Nc1ccc(Cl)cc1,5,7,-3,1.7,2.7,-7,0.61,i,5.9
Cc1ccc2nc(CSc3nc(C)nc4c3oc3ccccc34)[nH]c2c1,23,-9,-10,3.2,0.6,-5,0.68,i,5.6
CCCSc1nnc(-c2ccccc2N)c(=O)[nH]1,-2,.,.,.,-3.0,1,0.69,.,6.9
Cn1ncc(N=Cc2ccccc2[N+](=O)[O-])c1C(N)=O,11,9,6,0.4,0.6,-9,0.65,i,6.1
CCN(CC(=O)Nc1c(F)cccc1F)C(=O)c1cccc(-n2cccc2)c1,-11,5,1,-1.1,-15,33,0.66,.,-0.1
# Next section:
SMILES,B2AR ag,rRNA inh HTS,rRNA inh HTS OD600,rRNA inh HTS RFP,HNF4A DNA FP,ALR inh,E coli growth,FGF22 binding,UCH37 inh
COc1cccc(OC)c1C(=O)N1CCN(c2c(Cc3ccccc3)c(C)nc3ncnn23)CC1,-4,-21,-24,8.9,3.2,.,0.69,i,2.7
CCOc1ccc(NC(=O)CN(c2cc(C)cc(C)c2)S(=O)(=O)c2c(C)noc2C)cc1,-4,4,6,0.6,2.6,21,0.77,i,1.3
O=C1CC(c2ccc(Cl)cc2)Oc2ccc(Cl)cc21 (stereo unspecified),5,-12,-24,-0.9,-0.4,.,0.72,i,-3.0
O=c1ccnc(SCn2nnc3ccccc3c2=O)[nH]1,-6,.,.,.,7.6,-10,0.71,.,3.6
CC(C)Cn1c(N)c(C(=O)COC(=O)C2Cc3ccccc3CN2S(C)(=O)=O)c(=O)n(C)c1=O (stereo unspecified),2,9,17,0.2,-5.0,-8,0.68,i,-1.2
COC(=O)/C=C1/S/C(=N/NC(=O)c2ccccc2OC)NC1=O,0,-11,-4,-0.7,-2.4,97*,0.66,i,8.9
CN(c1ccccc1)c1nc(N)c([N+](=O)[O-])c(N2CCCCC2)n1,-1,-25,-23,4.0,-0.1,.,0.69,i,6.0
CCOC(=O)c1cnc2ccccc2c1Nc1cc(C(=O)O)ccc1C,1,-6,-15,1.8,-5.6,-1,0.72,i,8.3
O=C(NC1CCCCC1)C(C1CC1)n1c(=O)c(-c2ccco2)nc2ccccc21 (stereo unspecified),.,10,15,4.8,20,.,.,i,.

# Exported bar-delimited: entries from further up
molecule | B2AR ag | rRNA inh HTS | rRNA inh HTS OD600 | rRNA inh HTS RFP | HNF4A DNA FP | ALR inh | E coli growth | FGF22 binding | UCH37 inh
COc1cccc(OC)c1C(=O)N1CCN(c2c(Cc3ccccc3)c(C)nc3ncnn23)CC1 | -4 | -21 | -24 | 8.9 | 3.2 | . | 0.69 | i | 2.7
CCOc1ccc(NC(=O)CN(c2cc(C)cc(C)c2)S(=O)(=O)c2c(C)noc2C)cc1 | -4 | 4 | 6 | 0.6 | 2.6 | 21 | 0.77 | i | 1.3
O=C1CC(c2ccc(Cl)cc2)Oc2ccc(Cl)cc21 (stereo unspecified) | 5 | -12 | -24 | -0.9 | -0.4 | . | 0.72 | i | -3.0
O=c1ccnc(SCn2nnc3ccccc3c2=O)[nH]1 | -6 | . | . | . | 7.6 | -10 | 0.71 | . | 3.6
